# Compound activity deposited in PubChem BioAssay by National Center for Advancing Translational Sciences (NCATS).
# gsp antagonist = qHTS for Antagonists of gsp, the Etiologic Mutation Responsible for Fibrous Dysplasia/McCune-Albright Syndrome: qHTS; 0.4% of 340,000 active; Potency, µM (top dose mostly 76.9 µM), for the others: top-dose activity change, negative = inhibition, most hits filed as inhibitors; gsp-mutant cells, cAMP HTRF, 30 min; control for the full effect not named in the record; active = falling curve of any shape with a large fitted effect; inconclusive = falling curve, mostly with a smaller effect; inactive = flat or rising curve; cell line not stated here;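 also: intracellular cAMP measured with PDE inhibitor Ro 20-1724 present during compound exposure; potency is read from the fitted curve at half-maximal effect; % is scaled to controls: 0 for no effect and ±100 for the full control effect; nearly all actives have a fitted effect of over 65% in size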
#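 HTRF cAMP read-out (cAMP-d2 plus anti-cAMP antibody-K in lysis buffer, 30 min RT). Before lysis, cells are exposed to compounds with […] for 30 min at 37C in DPBS containing Ca/Mg, BSA and Tween 20.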
# TRPML1 agonist = qHTS for Agonists of the Human Mucolipin Transient Receptor Potential 1 (TRPML1). TRPML1-expressing cells, Ca2+ dye fluorescence, FDSS; host cell line not named in the record; reference of the full effect not given here. AID 624414, 2012. activation, % (test concentration not listed). Mucolipin-1 (Homo sapiens), Q9GZU1. 0.12% of 410,000 active; in the data active = activation above about 50%; inconclusive = about 30% to 50%; inactive = below about 30%; also: 0% is about no effect; the text of the record puts the active cut at 80%
# Target sequence (Q9GZU1 whole entry, looked up): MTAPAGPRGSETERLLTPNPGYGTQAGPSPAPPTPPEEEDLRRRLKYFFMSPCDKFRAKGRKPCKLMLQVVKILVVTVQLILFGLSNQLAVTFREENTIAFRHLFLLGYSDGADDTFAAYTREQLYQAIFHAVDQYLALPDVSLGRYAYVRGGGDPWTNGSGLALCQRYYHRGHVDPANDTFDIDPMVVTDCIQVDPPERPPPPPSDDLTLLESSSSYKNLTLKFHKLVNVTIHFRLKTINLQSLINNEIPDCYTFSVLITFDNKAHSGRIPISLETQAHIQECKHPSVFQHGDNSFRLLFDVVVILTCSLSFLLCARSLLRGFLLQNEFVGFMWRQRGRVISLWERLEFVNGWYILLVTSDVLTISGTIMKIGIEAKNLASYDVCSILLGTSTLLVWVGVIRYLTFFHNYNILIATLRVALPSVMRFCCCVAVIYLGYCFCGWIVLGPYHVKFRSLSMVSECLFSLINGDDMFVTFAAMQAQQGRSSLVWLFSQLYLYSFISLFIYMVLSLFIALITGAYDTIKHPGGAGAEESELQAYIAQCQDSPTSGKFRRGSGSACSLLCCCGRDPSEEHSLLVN
#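 Tetracycline-induced TRPML1-DL cells are seeded and incubated overnight before loading with a no-wash Ca2+ dye and quencher. Agonist activity is taken from the 110 s fluorescence read following compound pin-transfer on an FDSS, before EC80 54-4 challenge.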
# gsp ag = qHTS for Agonist of gsp, the Etiologic Mutation Responsible for Fibrous Dysplasia/McCune-Albright Syndrome: qHTS. gsp mutant cells, cAMP HTRF, 30 min; control for the full effect not named in the record. Potency, µM (top dose mostly 76.9 µM), for inactives: top-dose activation (cAMP increase), hits mostly activators. 0.13% of 340,000 active; active = well fitted activation curve with a large enough effect; inconclusive = small, poorly fitted or top-dose-only effect, or another doubt; inactive = no such curve, though single readings can be large or run the other way; cell line not stated here;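 also: phosphodiesterase inhibitor Ro 20-1724 added with compounds to block cAMP breakdown; potency is read from the fitted curve at half-maximal effect; nearly all actives have a fitted effect of over 60% in size; about a fifth of the inactives were tested at one dose only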
#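 Cells stably selected in G418 were plated at 2000/well, grown 16-24 hr, then given compounds in DMSO with the PDE inhibitor […] (300 uM solution added) for 30 min at 37C; cAMP was read by HTRF.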
# ClpP mod = qHTS Assay for Activators of ClpP | 1.9% of 340,000 active | ATP-dependent Clp protease proteolytic subunit (Bacillus subtilis (strain 168)), P80244 | Potency, µM (highest dose often 57.5 µM), inactives show at the top dose activity change, negative = active | purified B. subtilis ClpP, FRET peptide cleavage, 20 min | AID 651965, 2013; active = well fitted falling curve with a large enough effect; inconclusive = small, poorly fitted or top-dose-only effect; inactive = no such curve, though single readings can be large or run the other way; also: potency is read from the fitted curve at half-maximal effect; the source files actives as falling curves though it sought activators and does not explain the sign; nearly all actives have a fitted effect of over 65% in size; many hits overshoot -100%
# Target sequence (P80244 whole entry, looked up): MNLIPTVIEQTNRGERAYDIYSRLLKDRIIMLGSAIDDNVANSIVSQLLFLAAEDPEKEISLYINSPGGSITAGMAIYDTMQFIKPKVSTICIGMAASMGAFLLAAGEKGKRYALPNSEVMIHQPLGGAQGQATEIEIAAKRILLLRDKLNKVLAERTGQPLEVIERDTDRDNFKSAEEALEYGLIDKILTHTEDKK
#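 FRET quenching reversal measured ClpP activation: 10 microg/mL B. subtilis ClpP at pH 8 with the FRET-FV decapeptide, read at 430 nm after 320 nm excitation. The 20-min minus 0-min signal was scaled between DMSO/no-enzyme wells and ADEP (5.8 microM final).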
# Menin MLL FP FL = qHTS Assay for Inhibitors Targeting the Menin-MLL Interaction in MLL Related Leukemias: Competition With Fluorescein Labeled MLL-derived Peptide; AID 1766, 2009; FP activity change, % at 61.4 µM; 290,000 tested, under 10 active; Fluorescence polarization, fluorescein-MLL peptide displacement from menin; inconclusive = falling polarisation curve, or a change in total fluorescence; inactive = total fluorescence flat and polarisation flat or rising; no compound was filed as active; the % refers to the polarisation; negative = inhibition;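 also: % of control where 0% means no effect; inhibitors lower the polarisation; unlabelled MLL peptide was the positive control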
# TRPML1 blocker = qHTS for Inhibitors of the Human Mucolipin Transient Receptor Potential 1 (TRPML1) | Mucolipin-1 (Homo sapiens), Q9GZU1 | TRPML1-inducible cells, Ca2+ dye fluorescence, FDSS; stronger effect = lower value; inhibition of EC80 agonist-evoked calcium signal | activity change, negative = inhibition, % (test concentration not listed) | 0.02% of 390,000 active | AID 624415, 2012; in the data active means activity change below about -50%; inconclusive means about -30% to -50%; inactive means above about -30%;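 also: stimulus is agonist 54-4 at its EC80 concentration; % is scaled to controls: 0 for no effect and ±100 for the full control effect; compound concentration not given in the record; the text of the record puts the active cut at -80%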
#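 Tet-induced TRPML1-DL cells loaded with Ca8 no-wash calcium dye were read kinetically on FDSS. Compound addition was followed by EC80 agonist 54-4 (4 uM final); inhibition was read over 110 s.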
# * marks the source's active call; other numbers are inactive results; ? = inconclusive; . = not tested or not shown; & = joins results of further samples; [ ] = another dose, or the depositor's remark.
SMILES,gsp antagonist,TRPML1 agonist,gsp ag,ClpP mod,Menin MLL FP FL,TRPML1 blocker
Cc1cccc(CC(=O)c2c[nH]c3ccccc23)c1,-1%,0.6,-26%,.,0.4,6
CC(=O)Nc1cccc(NC(=O)CSc2nnc3ccc(-c4ccccn4)nn23)c1,-7%,0.3,27%,-3.1%,.,6
O=C(CN1CCc2ccccc2C1)Nc1cc(S(=O)(=O)N2CCOCC2)ccc1N1CCOCC1,29%,-0.4,3%,-0.3%,3.8,-15
Cc1cccc(N2CCN(C(=O)c3cc(S(=O)(=O)N4CCOCC4)cn3C)CC2C)c1 (centres undefined),-8%,-0.6,?,-3.0%,5.5,-13
Cc1ccccc1CC1(CO)CCCN(Cc2nc(-c3cccs3)oc2C)C1 (centres undefined),-4%,1.6,-14%,-29%,-3.2,16
O=C(Nc1cnn(C23CC4CC(CC(C4)C2)C3)c1)c1cc(-c2ccccc2)on1,8%,0.8,-5%,-5.3%,-3.9,-9
CCOC(=O)C(=CNc1ccc(C#N)cc1)C(=O)OCC,1%,1.3,-1%,-4.8%,1.1,12
NS(=O)(=O)c1cc2c(cc1Cl)NC(C1CC3C=CC1C3)NS2(=O)=O (centres undefined),-9%,0.5,.,-0.3%,-2.6&1.1,5
CS(=O)(=O)c1ccc2nc(NC(=O)C3CC(=O)N(c4ccccc4)C3)sc2c1 (centres undefined),-20%,-1.4,8%[15.4 µM],0.5%,1.0,-24
Cc1nn(-c2ccccc2)c(Cl)c1C(=O)NCC(=O)O,-7%,-0.5,1%,-0.5%,1.7,-10
NS(=O)(=O)c1ccc(NC(=S)NCC2CCCO2)cc1 (centres undefined),14%,0.0,13%,-7.8%,5.5,-9
O=c1[nH]c2ccc(NCc3ccc(-c4ccc(Br)cc4)o3)cc2[nH]1,.,-0.2,.,2.8%,.,-18
CCCCc1nnc(NC(=O)c2oc3ccccc3c2C)s1,-13%,1.7,4%[15.4 µM],-8.3%,.,12
Cc1ccc(CNC(=O)Cn2c(=O)n(CC(=O)N3CCCCC3)c(=O)c3sccc32)cc1,0%,0.2,-2%,-0.1%,.,-10
CC(C)(C)OC(=O)[C@H](Cc1ccccc1)NC(=O)c1nc[nH]c1C(=O)N1CCNCC1,9%,-0.7,4%,0.2%,.,-24
Cc1ccc(C)c(S(=O)(=O)c2nnn3c2nc(NC2CCCC2)c2sccc23)c1,.,0.2,.,32µM*,.,-12
O=C(CCCOc1ccccc1)N1CCN(S(=O)(=O)c2cccs2)CC1,-8%,-0.8,?,0.6%,-0.3,12
CC(=O)Nc1ccc2sc(C)nc2c1,7%,2.3,?,1.7%,1.0,4
N/C(=N\OC(=O)c1ccc2ccccc2c1)c1cccc([N+](=O)[O-])c1,-22%,0.4,-58%[inhibitor],2.5%,1.6,-22
Cc1c(Cl)cccc1NC(=O)CC(C(=O)O)C1CCCO1 (centres undefined),11%,-0.2,-5%,-0.5%,2.0,1
CCCN1CC23C=CC(O2)C(C(=O)O)C3C1=O (centres undefined),5%,0.3,-20%,2.3%,4.6,21
NC(N)=N/N=C/c1ccc(OCc2ccccc2)c(OCc2ccccc2)c1,6%,-0.3,-3%,.,-5.8,-7
Cc1nn(C)c(NC(=O)c2ccc(Cl)cc2Cl)c1Br,2%,1.4,6%,0.9%,2.0,3
CCn1c(Cc2ccc(OC)cc2)nnc1SCC(=O)N1CCN(c2ccccc2)CC1,2%,1.7,-33%,-1.1%,0.3,4
Cc1cc2oc(=O)cc(CN3CCN(Cc4ccccc4)CC3)c2cc1C,8%,1.8,-4%,-6.8%,6.6,15
COC(=O)[C@@]1(Cc2ccc(F)cc2)[C@H]2c3cc(C(=O)N(C)C)n(Cc4c(CO)[nH]cc(C)c4=O)c3C[C@H]2CN1C(=O)c1ccccc1,-4%,8.6,-1%,-11%,-1.7&-3.4,17
Cc1ccccc1-n1c(C)cc(/C=N/Nc2ccc([N+](=O)[O-])cn2)c1C,25%,1.0,17%,?,15,-3
COc1ccc(C2CC(c3ccccc3)=NN2C(=O)COC(=O)C2(C)CC2(Cl)Cl)cc1 (centres undefined),0%,2.1,1%[15.4 µM],.,0.3,36
Cc1nnc(SCC(=O)N2CCc3ccccc32)s1,4%,0.1,-5%,-0.3%,-1.1,19
Cc1cc2ccccn2c1C(=O)c1ccncc1,0%,0.1,-51%[inhibitor],-0.6%,-1.5,3
CN(CC(=O)Nc1ccccc1Br)C(=O)CNC(=O)Cc1cccc2ccccc12,1%,1.2,-16%,-2.2%,.,33
Cc1cccc(OCC(=O)NCC(=O)N/N=C/c2c(C)[nH]c3ccccc23)c1,-10%,0.5,13%,3.5%,8.2,10
O=C(NC1CCCCC1)C1COc2ccccc2O1 (centres undefined),7%,0.1,8%[15.4 µM],-6.0%,.,-19
COc1ccc(N2C(=O)CCC(C(=O)NCc3cccnc3)C2c2ccc(OC)c(OC)c2)cc1 (centres undefined),-6%,0.1,-17%,-1.1%,-2.9,19
O=C(CN1C(=O)/C(=C/c2ccco2)SC1=S)NC1CCS(=O)(=O)C1 (centres undefined),-7%,-0.8,29%,-0.2%,?,9
COc1ccc(NC(=O)CN(c2ccccc2OC)S(=O)(=O)c2cccs2)cc1Cl,-17%,-0.3,?,-4.2%,.,-10
CN(C)CCCN(C(=O)c1ccc(S(=O)(=O)N(C)Cc2ccccc2)cc1)c1nc2c(F)cccc2s1,-30%,0.0,-3%,10%,.,-12
CCN(CC)c1ccc2cc(S(=O)(=O)c3ccc(C)cc3)c(=O)oc2c1,10%,?,-9%,?,?,8
COc1cc(/C=N/NC(=O)CNS(=O)(=O)c2ccc(C)cc2)cc(OC)c1OC,18%,-0.2,-1%[15.4 µM],0.7%,.,13
CCc1ccc(OCC(=O)NC(=S)Nc2ccc(C)cc2C)c(Br)c1,-2%,1.6,-65%[inhibitor],-0.6%,-3.5,-6
Cc1ccc(-c2csc3ncn(CC(N)=O)c(=O)c23)cc1C,-10%,0.4,-1%,-3.7%,-11,9
CCOC(=O)c1[nH]c(C)c(C(=O)NC(C)CC)c1C (centres undefined),7%,0.7,-57%[inhibitor],-0.8%,0.2,7
COC(=O)CCCC(=O)N1CCC(CCC(=O)NCc2ccc(F)cc2)CC1,-14%,-0.4,-63%[inhibitor],.,0.8,-2
Cc1c(C)c2c(OCC(=O)N3CCC(C(N)=O)CC3)cc3c(c2oc1=O)CCC(C)(C)O3,-9%,.,.,4.8%,-0.9,.
COc1ccccc1CNC(=O)C(=O)NCC1OCCN1S(=O)(=O)c1ccc(Br)cc1 (centres undefined),-3%,1.7,13%[15.4 µM],-1.7%,.,15
COc1ccc(C2C(C#N)=C(N)N(c3sc4c(c3C#N)CCCC4)C3=C2C(=O)CC(C)(C)C3)cc1OC (centres undefined),-2%,-0.1,-51%,2.3%,?,8
O=C(CCn1c(=O)c2sccc2n(CC(=O)OCc2ccccc2)c1=O)NCc1ccco1,-10%,1.3,14%,-0.4%,-0.5,-2
COc1cc(C=Nc2cccc(C)c2)c(O)c([N+](=O)[O-])c1,?,-0.6,-3%,?,27,-9
CC(=O)Nc1ccc(NC(=O)[C@@H](NC(=O)N2C[C@H]3C[C@@H](C2)c2cccc(=O)n2C3)C(C)C)cc1,14%,.,.,-3.1%,-1.4,.
COc1ccc(CCN2CN(S(=O)(=O)c3ccc(OC)cc3)c3nc4ccccc4nc32)cc1,6%,0.5,2%,-26%,3.0,6
CC(OC(=O)c1ccc2c(c1)NC(=O)CS2)C(=O)c1ccc(F)cc1 (centres undefined),-7%,0.8,3%,.,.,5
Cc1ccc(S(=O)(=O)N2CCCC2C(=O)NCc2ccncc2)cc1 (centres undefined),8%,-0.7,-21%,-0.8%,.,7
COC(=O)c1cc2oc3ccccc3c2n1CC(=O)Nc1ccc(C)c(F)c1,.,-0.7,.,-7.5%,.,-9
CCNC(=S)Nc1ccc(Cl)c(C(F)(F)F)c1,0%,-0.2,2%,-1.1%,5.5,-8
CCCn1c(N2CCC(Cc3ccccc3)CC2)nc2c1c(=O)[nH]c(=O)n2C,-7%,5.9,10%,-4.2%,3.3,1
COc1cc(/C=N/n2c(-c3n[nH]c4c3CCC4)n[nH]c2=S)ccc1O,?,.,15%,-4.7%,2.7,.
O=C(Nc1nnc(-c2ccco2)o1)c1ccc([N+](=O)[O-])s1,-19%,-1.2,-7%[15.4 µM],?,9.3,-4
Fc1ccccc1CSc1ncnc2sc3c(c12)CCCC3,1%,2.2,-6%,-5.1%,1.0,31
CCOc1ccccc1N(CC(=O)N1CCc2ccccc2C1)S(C)(=O)=O,-3%,0.1,0%,-1.0%,-0.1,-8
CCc1ccc(CNC(=O)C2CCN(C(=O)c3ccc(-n4ccc5ccccc54)s3)CC2)cc1,.,1.2,.,35µM*,.,8

# Going on with the list:
SMILES,gsp antagonist,TRPML1 agonist,gsp ag,ClpP mod,Menin MLL FP FL,TRPML1 blocker
CC(C)c1ccccc1NC(=O)c1cccnc1,-9%[15.4 µM],-0.1,1%,3.2%,-0.1,18
Cc1ccc(C(=O)Nc2ncc3c(Cl)cccc3n2)cc1,-6%,0.0,7%,-2.5%,5.8,15
Cc1cc(-c2ccc([N+](=O)[O-])cc2)cc(C)n1,-4%,-1.1,-10%,.,.,-3
O=C(Nc1ncc(S(=O)(=O)c2ccc([N+](=O)[O-])cc2)s1)c1ccccc1F,-24%,16,-3%,2.7%,-2.6,0
COc1cccc(CN2C(=NC(=O)C3CCCO3)SC3CS(=O)(=O)CC32)c1 (centres undefined),.,0.4,?,-2.4%,.,-6
Cc1ccc(/C([O-])=C(/C(=S)NCc2ccc3c(c2)OCO3)[n+]2ccc(N(C)C)cc2)c(C)c1,.,2.9,-13%[15.4 µM],.,-3.5,-8
Cc1ccccc1NC(=O)CCC(=O)N/N=C/c1ccncc1,-21%,.,-10%,-2.0%,?,.
O=C(CSc1nc2ccccc2o1)Nc1ccccc1N1CCOCC1,-21%,1.2,-2%,0.1%,2.2,10

# Compounds above with a cyano group (two):
SMILES,gsp antagonist,TRPML1 agonist,gsp ag,ClpP mod,Menin MLL FP FL,TRPML1 blocker
CCOC(=O)C(=CNc1ccc(C#N)cc1)C(=O)OCC,1%,1.3,-1%,-4.8%,1.1,12
COc1ccc(C2C(C#N)=C(N)N(c3sc4c(c3C#N)CCCC4)C3=C2C(=O)CC(C)(C)C3)cc1OC (centres undefined),-2%,-0.1,-51%,2.3%,?,8

# Rows are unselected; about 2.1% have a hit in one of these screens.
